Screening data (PubChem)
SARS PLP yeast = inhibitors of SARS-CoV papain-like protease in yeast; S. cerevisiae expressing SARS-CoV PLpro, growth rescue; control for the full effect not named in the record; Potency, µM (top dose mostly 32.9 µM), without a hit: top-dose activity, positive = growth rescue; 0.19% of 330,000 active; AID 485353; active means well fitted rising curve with a large enough effect; inconclusive means small, poorly fitted or top-dose-only effect; inactive means no such curve, though single readings can be large or run the other way; also: 0% is about no effect; nearly all actives have a fitted effect of over 55% in size; growth read by luminescence after 48 h
RE007 growth inh = less growth of the S. pombe RE007 Vpr strain | Potency, µM (doses to about 92.2 µM), without a hit: at the highest dose activity change, negative = less growth | S. pombe RE007 Vpr strain, BacTiter-Glo ATP luminescence, 24 h; control for the full effect not named in the record | AID 651644 | 0.21% of 360,000 active; active = well fitted falling curve with a large enough effect; inconclusive = small, poorly fitted or top-dose-only effect; inactive = no such curve, though single readings can be large or run the other way;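 also: % is scaled to controls: 0 for no effect and ±100 for the full control effect; nearly all actives have a fitted effect of over 50% in size; the assay follows cell death caused by Vpr and the record does not say whether a fall means rescue or toxicity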
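Fission yeast RE007 carrying one integrated HIV-1 vpr copy, seeded at OD 0.01 in PMG+AL medium with 23 nL pinned compound. Grown 24 h at 30 degrees; viability read by BacTiter-Glo luminescence after 5 min.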
StopGo reporter = FMDV 2A StopGo reporter, luciferase signal; human cells with a luciferase reporter of 2A StopGo recoding; control for the full effect not named in the record; Potency, µM (top dose mostly 57.9 µM), for inactives: at the top dose signal change, negative = less light; 1.2% of 410,000 active; AID 1159524; active = well fitted falling curve with a large enough effect; inconclusive = small, poorly fitted or top-dose-only effect; inactive = no such curve, though single readings can be large or run the other way; tested in HEK293T cells; also: % is scaled to controls: 0 for no effect and ±100 for the full control effect; nearly all actives have a fitted effect of over 45% in size; luciferase light after 4 h
An asterisk follows results filed as active; ? = inconclusive; [ ] = dose if it differs, or a comment. Potency is read from the fitted curve at half-maximal effect.

SMILES	SARS PLP yeast	RE007 growth inh	StopGo reporter
O=C(NN1C(=O)C2C3C=CC(O3)C2C1=O)c1ccccc1 (configuration not stated)	2%	3%	2%
C=CCN1C(=O)/C(=C\c2cc(Br)c(OCc3ccccn3)c(OC)c2)SC1=S	0%	1%	-2%
OCC1CCCN(c2ncnc3scc(-c4ccccc4)c23)C1 (configuration not stated)	-2%	12%	-19%
CCc1cc(C(=O)NCC(c2ccco2)N2CCCCC2)sc1C (configuration not stated)	-1%	-9%	-13%
C[C@]12CCC[C@H](O1)[C@H]([C@@H](O)c1ccccc1)O2	2%	4%	12%
Oc1c(Br)cc(Br)cc1/C=N/c1nccs1	1%	?	-10%
COc1ccc([C@@H]2[C@@H]3C(=O)N(C(C)(C)C)C(=O)[C@@H]3[C@]3(Cc4ccccc4)C(=O)N(c4ccccc4)C(=O)N23)cc1	3%	9%	-8%
O=C(NCCn1cc(SCC(=O)N2CCOCC2)c2ccccc21)c1c(F)cccc1F	0%	2%	-25%
CCN(CC)C(=O)Cn1cc(S(=O)(=O)CC(=O)Nc2ccc3c(c2)OCCO3)c2ccccc21	0%	2%	54%[activator]
Cc1ccc(S(=O)(=O)N2[C@@H](c3ccc(Cl)cc3)C(C(=O)O)=CC[C@H]2c2ccc(Cl)c(Cl)c2)cc1	-2%	9%	-25%
N#CC(C#N)=C1c2cc(S(N)(=O)=O)ccc2-c2ccc(S(N)(=O)=O)cc21	-1%	-24%	25µM*
Cc1ccc(S(=O)(=O)NCCC(=O)NCCCSc2ccccc2)cc1	1%	1%	3%
COc1ccccc1C(=O)NCCC(=O)N1CCN(S(=O)(=O)c2cccc(Cl)c2)CC1	1%	-1%	-3%
COc1ccc(OC)c(CN2CCN(C(=O)c3ccc(S(=O)(=O)Nc4ccccc4F)cc3)CC2)c1	-3%	-3%	-40%
CC(=O)N1CCN(C(=O)CNC(=O)c2cccs2)CC1	-2%	7%	-16%
Cc1ccc(S(=O)(=O)Nc2ccccc2N(C)S(=O)(=O)c2ccc(C)cc2)cc1	-4%	6%	-16%
Cc1ccc(N(CC(=O)N/N=C/c2cccnc2)S(=O)(=O)c2ccccc2)cc1	1%	5%	-10%
Cc1cccc(OCCC(=O)Nc2ccc(N3CCOCC3)cc2N2CCOCC2)c1	-1%	4%	-14%
COc1ccccc1N1CCN(C(=O)C2CCCN(S(=O)(=O)c3ccc(C)cc3)C2)CC1 (configuration not stated)	-1%	-16%	?
COc1ccc(S(=O)(=O)Nc2cc(Cl)ccc2-n2cncn2)cc1	0%	-7%	1%
O=C(CN1C(=O)NC2(CCCC2)C1=O)NCCc1ccccc1	0%	6%	-5%
Cc1ccc(C)c(S(=O)(=O)N2CCN(C(=O)c3ccccn3)CC2)c1	-12%	1%	-6%
NC(=O)C1(c2ccccc2)OC1c1ccccc1 (configuration not stated)	-2%	-18%	13%
COc1ccc(C(C)(C)C)cc1NC(=O)c1ccccc1-n1cnnn1	7%	-7%	-14%
CCOC(=O)c1ccn(CSc2c(F)c(F)cc(F)c2F)n1	-2%	-11%	-14%
C[C@H](CO)N1C[C@H](C)[C@@H](CN(C)S(C)(=O)=O)Oc2c(NC(=O)C3CCCCC3)cccc2C1=O	14%	3%	51%[activator]
CN(Cc1ccccc1)C(=O)c1ccc(NC(=O)C2CCN(C(=O)OC(C)(C)C)CC2)cc1	4%	-1%	?
C=CCC[C@H](Cc1ccc(F)cc1)C(=O)OC[C@H](Cc1c[nH]c2ccccc12)NC(=O)[C@@H](CC=C)CC(=O)N[C@@H](CO)Cc1ccccc1	0%	-2%	-20%
O=C(O)C1Nc2c(O)cc(Cl)c([N+](=O)[O-])c2C2C=CCC12 (configuration not stated)	?	5%	-5%
CSCCC(NC(=O)c1ccccc1Br)C(=O)NNC(=O)c1ccncc1 (configuration not stated)	5%	6%	-11%
COc1ccc(OCCCC(=O)Nc2cc(S(=O)(=O)N3CCCCC3)ccc2OC)cc1	4%	4%	-13%
Brc1cc(/C=N/n2cnnc2)oc1Br	1%	-3%	-10%
COc1ccc(S(=O)(=O)N(C)C[C@H]2Oc3c(NC(=O)Nc4ccc5c(c4)OCO5)cccc3C(=O)N([C@H](C)CO)C[C@@H]2C)cc1	-2%	10%	-10%
O=C1CN(CC(=O)Nc2cccc(Cl)c2Cl)c2ccccc2N1	0%	1%	-13%
COc1ccc(S(=O)(=O)N(C)CC(=O)Nc2ccc(C(N)=O)cc2)cc1OC	1%	0%	-6%
Cc1ccc(C(=O)N/C(=C/c2cn(-c3ccccc3)nc2-c2ccccc2)C(=O)O)cc1	-1%	-16%	-17%
Cc1ccc(CNc2ccc([N+](=O)[O-])cc2C(N)=O)cc1	-2%	5%	39%[activator]
COc1ccc(C(=O)COC(=O)c2sccc2C)cc1OC	3%	-3%	45%[activator]
NCCCn1c(C(=O)c2ccc(Cl)cc2)c2ccc(C(F)(F)F)cc2[n+]1[O-]	0%	-4%	-26%
O=C(COC(=O)c1ccc2c(c1)OCO2)Nc1ccccc1Cl	2%	0%	12%
C/C(CC(=O)Nc1cc(C)ccn1)=N\NC(=O)c1cccc(C)c1	-5%	-8%	33%[activator]
CC(=O)N1CCN(C(=O)COC(=O)CNC(=O)c2ccc(C)cc2)CC1	3%	7%	-16%
CCCn1c(N/N=C\C=C\c2ccccc2)nc2c1c(=O)[nH]c(=O)n2C	-1%	8%	12%
COC(=O)c1cccc(-n2sc3ccccc3c2=O)c1	-8%	?	1%
O=C(CC1C[C@H](C(=O)N2CCCCC2)[C@@]2(CCc3ccccc3)c3[nH]c4ccccc4c3CCN2C1=O)NCc1ccco1 (some centres not stated)	-2%	-2%	-6%
CCC(=O)N1N=C(c2ccc(NS(C)(=O)=O)cc2)CC1c1ccc(N(C)C)cc1 (configuration not stated)	3%	-17%	61%[activator]
O=C(/C=C/c1ccc(Cl)cc1)Nc1nccs1	1%	-4%	9%
Cc1cccc(Oc2ccccc2NC(=O)C2=COCCO2)c1	-2%	5%	-18%
O=C(CN1C(=O)C2CC=CCC2C1=O)N1CCN(S(=O)(=O)c2ccccc2)CC1 (configuration not stated)	4%	-4%	-1%
Cc1noc(C)c1C(=O)OC(C)C(=O)Nc1ccc2c(c1)OCO2 (configuration not stated)	6%	-7%	-9%
COc1ccc(OCC(=O)OCC(=O)NC2CC2)cc1	1%[6.58 µM]	-16%	-5%
COC(=O)[C@]1(C)N[C@H](CN(C)C(=O)c2ccc(F)cc2)[C@@H]2C(=O)N(Cc3ccccc3)C(=O)[C@@H]21	2%	28%	-2%
COC(=O)[C@H](CC(C)C)N(Cc1ccccc1)S(=O)(=O)N(Cc1ccc(OC)cc1)[C@@H](CC(C)C)C(=O)OC	-5%	0%	?
Cc1ccc(C)c(S(=O)(=O)N2CCN(c3nc(CN4CCOCC4)nc4sc(C)c(C)c34)CC2)c1	-2%	-7%	-7%
Cc1ccc(C(=O)N2CCN(S(=O)(=O)c3ccccc3[N+](=O)[O-])C2)cc1	1%	-17%	40%[activator]
C[C@@H](NC(=O)c1nc[nH]c1C(=O)NCc1ccccc1)c1ccccc1	-2%	5%	-24%
COc1ccccc1NC(=O)COC(=O)C12CC3CC(CC(Br)(C3)C1)C2	1%	6%	-21%
O=S(=O)(c1ccc2nnn(O)c2c1)N1CCOCC1	-3%	-1%	-9%
Cc1ccc(S(C)(=O)=O)cc1C(=O)OCC(=O)N(Cc1ccccc1)Cc1ccccc1	1%	-1%	-24%
CC(=O)Nc1ccc(NC(=O)c2cccc(S(=O)(=O)N(C)C3CCCCC3)c2)cc1	26%	-9%	-25%

Part of the list above in order of number of heavy atoms, lowest first.
SMILES	SARS PLP yeast	RE007 growth inh	StopGo reporter
O=C(/C=C/c1ccc(Cl)cc1)Nc1nccs1	1%	-4%	9%
O=S(=O)(c1ccc2nnn(O)c2c1)N1CCOCC1	-3%	-1%	-9%
COc1ccc(OCC(=O)OCC(=O)NC2CC2)cc1	1%[6.58 µM]	-16%	-5%
Cc1cccc(Oc2ccccc2NC(=O)C2=COCCO2)c1	-2%	5%	-18%
Cc1noc(C)c1C(=O)OC(C)C(=O)Nc1ccc2c(c1)OCO2 (configuration not stated)	6%	-7%	-9%
CC(=O)N1CCN(C(=O)COC(=O)CNC(=O)c2ccc(C)cc2)CC1	3%	7%	-16%
NCCCn1c(C(=O)c2ccc(Cl)cc2)c2ccc(C(F)(F)F)cc2[n+]1[O-]	0%	-4%	-26%
O=C(CN1C(=O)C2CC=CCC2C1=O)N1CCN(S(=O)(=O)c2ccccc2)CC1 (configuration not stated)	4%	-4%	-1%
CC(=O)Nc1ccc(NC(=O)c2cccc(S(=O)(=O)N(C)C3CCCCC3)c2)cc1	26%	-9%	-25%
Cc1ccc(S(C)(=O)=O)cc1C(=O)OCC(=O)N(Cc1ccccc1)Cc1ccccc1	1%	-1%	-24%
COC(=O)[C@]1(C)N[C@H](CN(C)C(=O)c2ccc(F)cc2)[C@@H]2C(=O)N(Cc3ccccc3)C(=O)[C@@H]21	2%	28%	-2%
Cc1ccc(C)c(S(=O)(=O)N2CCN(c3nc(CN4CCOCC4)nc4sc(C)c(C)c34)CC2)c1	-2%	-7%	-7%
COC(=O)[C@H](CC(C)C)N(Cc1ccccc1)S(=O)(=O)N(Cc1ccc(OC)cc1)[C@@H](CC(C)C)C(=O)OC	-5%	0%	?
O=C(CC1C[C@H](C(=O)N2CCCCC2)[C@@]2(CCc3ccccc3)c3[nH]c4ccccc4c3CCN2C1=O)NCc1ccco1 (some centres not stated)	-2%	-2%	-6%

Record cards, from the list above. Values in the order: SARS PLP yeast | RE007 growth inh | StopGo reporter
Record of `Cc1noc(C)c1C(=O)OC(C)C(=O)Nc1ccc2c(c1)OCO2` (configuration not stated) : 6% | -7% | -9%
Record of `COC(=O)[C@]1(C)N[C@H](CN(C)C(=O)c2ccc(F)cc2)[C@@H]2C(=O)N(Cc3ccccc3)C(=O)[C@@H]21` : 2% | 28% | -2%
Record of `COc1ccccc1NC(=O)COC(=O)C12CC3CC(CC(Br)(C3)C1)C2` : 1% | 6% | -21%
Record of `CCC(=O)N1N=C(c2ccc(NS(C)(=O)=O)cc2)CC1c1ccc(N(C)C)cc1` (configuration not stated) : 3% | -17% | 61%[activator]

Following part.
SMILES	SARS PLP yeast	RE007 growth inh	StopGo reporter
COc1ccc(NS(=O)(=O)c2ccc(N3CCOCC3)c(N)c2)cc1	-7%	4%	?
Cn1c(=O)c2c(ncn2CC(=O)N2CCN(S(=O)(=O)c3ccc(F)cc3)CC2)n(C)c1=O	5%	0%	-5%
Cc1ccc2nc(-c3ccc(-c4cccc(Cl)c4)cc3)c(NCc3ccccc3)n2c1	-2%	-21%	?
COc1cc2cnc(-c3ccsc3)cc2cc1OC	-18%	?	5%
Cc1sc2ncnc(N3CCC(C(=O)Nc4ccc(C#N)c(Cl)c4)CC3)c2c1C	-1%	1%	?
NS(=O)(=O)c1ccc(CCNC(=O)c2cc([N+](=O)[O-])ccc2N2CCOCC2)cc1	-3%[6.58 µM]	6%	-2%
Cc1ccc([N+](=O)[O-])c2c1C(N1CCCC1)C(C)(C)O2 (configuration not stated)	-1%	-5%	-6%
CCN(C[C@H]1N[C@@](CC)(C(=O)OC)[C@H]2C(=O)N(C)C(=O)[C@@H]12)C(C)=O	-1%	-11%	-9%
O=C(O)C(=O)/C(=C\c1ccc([N+](=O)[O-])cc1)c1ccc2ccccc2n1	-1%	14%	103%[activator]
Cc1ccccc1N1CCN(CC(=O)Nc2ccccc2C(=O)NC2CC2)CC1	-6%	9%	?
COc1ccc(C(=O)C(C)Sc2nnc(C3CC3)n2C2CC2)cc1 (configuration not stated)	1%	-2%	-1%
COc1ccc(C(CNC(=O)c2ccc(Cl)c(S(=O)(=O)N3CCCC3)c2)N2CCCC2)cc1 (configuration not stated)	7%	0%	-26%
COc1ccc([C@H]2CC(=O)C=C(c3ccc(C(F)(F)F)c(C(F)(F)F)c3)C2)cc1OC	-1%	-13%	?
CCN(CC(=O)Nc1ccccc1C(F)(F)F)C(=O)c1ccccc1Sc1ccccc1C#N	10%	7%	16%

These rows are one share of the data; count on the stated rates, not on these rows.
